Bioassay records deposited in PubChem by National Center for Advancing Translational Sciences (NCATS).
Rango complex inh: prevents formation of the Rango-importin beta complex; Rango CFP/YFP FRET sensor + importin beta, 45 min; 340,000 tested, 0.031% active; Potency, µM (titrated, usually from 92.2 µM), inactives show at the highest dose inhibition of complex formation; Q14974; active = rising FRET ratio curve, often small or poorly fitted; inconclusive = mostly compound fluorescence or quenching in the first reads; inactive = flat curves in all reads;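 also: potency is read from the fitted curve at half-maximal effect; 0% = DMSO wells and 100% = buffer wells lacking importin beta; nearly all actives have a fitted effect of over 15% in size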
Target sequence (Q14974 whole entry, looked up): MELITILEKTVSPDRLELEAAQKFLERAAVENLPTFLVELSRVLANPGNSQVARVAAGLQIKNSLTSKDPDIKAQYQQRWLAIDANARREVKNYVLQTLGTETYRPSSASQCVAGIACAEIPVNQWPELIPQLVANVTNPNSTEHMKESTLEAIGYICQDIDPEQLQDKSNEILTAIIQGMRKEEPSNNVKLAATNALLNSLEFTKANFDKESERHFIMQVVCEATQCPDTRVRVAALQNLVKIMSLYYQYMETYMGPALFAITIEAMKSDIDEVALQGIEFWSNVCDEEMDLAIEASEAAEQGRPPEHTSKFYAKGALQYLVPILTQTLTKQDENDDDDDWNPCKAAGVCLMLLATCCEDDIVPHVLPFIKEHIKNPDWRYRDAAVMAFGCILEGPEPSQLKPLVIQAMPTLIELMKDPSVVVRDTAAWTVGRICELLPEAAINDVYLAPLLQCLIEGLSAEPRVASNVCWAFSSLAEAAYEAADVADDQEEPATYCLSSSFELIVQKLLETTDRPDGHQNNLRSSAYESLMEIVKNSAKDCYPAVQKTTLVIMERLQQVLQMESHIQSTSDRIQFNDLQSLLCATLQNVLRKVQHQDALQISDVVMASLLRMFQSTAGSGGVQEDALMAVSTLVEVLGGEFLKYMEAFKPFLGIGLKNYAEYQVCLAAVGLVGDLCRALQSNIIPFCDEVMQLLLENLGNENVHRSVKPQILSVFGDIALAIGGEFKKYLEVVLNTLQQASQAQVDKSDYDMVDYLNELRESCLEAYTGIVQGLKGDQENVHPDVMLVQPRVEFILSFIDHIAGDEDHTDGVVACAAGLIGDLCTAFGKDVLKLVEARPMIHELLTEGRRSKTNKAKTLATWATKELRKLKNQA
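FRET biosensor Rango (snurportin 1 IBB between N-terminal EYFP and C-terminal Cerulean), 50 nM in PBS/1 mM DTT/0.02% Tween-20/0.1% BSA, preincubated 5 min RT with compound; 0.125 microM importin beta added, 45 min RT, CFP/YFP FRET ratio read.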
GLA inh pH 4.5: inhibitors of human alpha-galactosidase A at pH 4.5 | P06280 | purified enzyme, 4-MU-alpha-Gal fluorescence, pH 4.5 | activity change, negative = inhibition, % at 105 µM | 230,000 tested, under 10 active; inconclusive = small, poorly fitted or top-dose-only inhibition, or a rising curve; inactive = flat fitted curve, though single readings scatter; no compound was filed as active;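 also: 0% = full activity with enzyme and -100% = basal without enzyme; dose as in the result columns while the protocol names 77 µM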
Rango dissoc inh: prevents RanGTP from dissociating the Rango-importin beta complex; O95149+P62826; Biochemical FRET Rango-importin beta, RanGTP-induced dissociation; Potency, µM (top dose mostly 46.1 µM), without a hit: at the highest dose activity change, negative = inhibition; 340,000 tested, 0.071% active; AID 540253; active means falling FRET ratio curve, often poorly fitted, with flat reads before Ran was added; inconclusive means other falling curves, or compound fluorescence or quenching; inactive means flat or rising ratio curve;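 also: potency is read from the fitted curve at half-maximal effect; % of control where 0% means no effect; nearly all actives have a fitted effect of over 45% in size; -100% = wells without RanGTP and RCC1; the record marks most hits as doubtful in a second field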
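Recombinant Rango FRET biosensor (EYFP–snurportin 1 IBB–cerulean CFP10) at 0.1 uM premixed with 0.25 uM importin beta in PBS, 1 mM DTT, 0.02% Tween-20, 0.1% BSA. Compound added 5 min; RanGTP-RCC1 (0.6 uM Ran, 2 mM GTP, 0.2 uM RCC1) then triggers release, read at 45 min.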
miR-21 reporter: raises the signal of a miR-21 reporter. HeLa miR-21 FLuc reporter, luciferase, 48 h. Potency, µM (titrated, usually from 38.3 µM), without a hit: at the top dose reporter change, positive = more light. 340,000 tested, under 10 active. AID 2288; active = well fitted rising curve with a large enough effect; inconclusive = small, poorly fitted or top-dose-only effect; inactive = no such curve, though single readings can be large or run the other way;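 also: % of control where 0% means no effect; miR-21 action dims this reporter so a rising signal means less miR-21 action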
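HeLa miR-21-FLuc reporter line, endogenous miR-21; 2000 cells/well in DMEM/10% FBS; compound titration up to ~40uM final, 48 h, 37 degree Celsius; luciferase detection reagent, 15 min lysis, CCD luminescence.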
Active calls of the source: *; ? = inconclusive; nt = not tested or not shown; & = joins results of further samples. Not all compounds are listed; the hit share may differ from the screen's.

The first 4 compounds (preview)
SMILES	Rango complex inh	GLA inh pH 4.5	Rango dissoc inh	miR-21 reporter
CCOc1ncccc1C(=O)OCc1cccc([N+](=O)[O-])c1	1.1%	-11	-3%	-2%
CN1C(=O)c2ccc(NC(=O)c3cccc4ccccc34)cc2C1=O	-3.9%	nt	17%	-5%
O=C(CN1CCN(c2ccc(Cl)cc2)CC1)c1ccc2c(c1)OCO2	-0.1%	7	-5%	1%
COc1ccc(Cl)cc1NC(=O)CCS(=O)(=O)c1cc2c(cc1C)NC(=O)CO2	3.0%	nt	8%	6%

This part in full, from the first entry:
SMILES	Rango complex inh	GLA inh pH 4.5	Rango dissoc inh	miR-21 reporter
CCOc1ncccc1C(=O)OCc1cccc([N+](=O)[O-])c1	1.1%	-11	-3%	-2%
CN1C(=O)c2ccc(NC(=O)c3cccc4ccccc34)cc2C1=O	-3.9%	nt	17%	-5%
O=C(CN1CCN(c2ccc(Cl)cc2)CC1)c1ccc2c(c1)OCO2	-0.1%	7	-5%	1%
COc1ccc(Cl)cc1NC(=O)CCS(=O)(=O)c1cc2c(cc1C)NC(=O)CO2	3.0%	nt	8%	6%
CC(C)(C)c1ccc(C(=O)N2CCN(c3ncccn3)CC2)cc1	0.6%	nt	-1%	-4%
COc1cc(/C=C/C(=O)OCC(=O)Nc2ccc3c(c2)OCCO3)ccc1O	?	1	?	-4%
COc1c2c(nc3occc13)C(CC=C(C)C)(OC)C(OC(C)=O)CC2 (configuration not stated)	1.0%	-3	-1%	-4%
CCNS(=O)(=O)c1ccc(CCC(N)=O)cc1	-0.5%	5	8%	-1%
Cc1ccc(NC(=O)CCS(=O)(=O)c2ccc3c(c2)NC(=O)C(C)S3)cc1Cl (configuration not stated)	-0.3%	nt	22%	19%
COc1cccc(CN(C)CC(=O)NNC(=O)c2ccc(Cl)cc2)c1	0.0%	-17	22%	-8%
Cc1ccnc(NC(=O)CCC(=O)N(CC(=O)NC(C)(C)C)Cc2ccc3c(c2)OCO3)c1	-1.8%	nt	2%	-1%
CC1Cc2nc(SCC(=O)Nc3nccs3)n(C)c(=O)c2S1 (configuration not stated)	-2.6%	6	-10%	-3%
O=C(NC1CC1)c1cc2cc(Br)ccc2s1	2.8%	nt	0%	-23%
O=C(c1cccc(Cl)c1)N1CCN(Cc2ccc3c(c2)OCO3)CC1	2.2%	nt	11%	6%
CN(C)CCNC(=O)c1ccccc1-c1ccccc1	-0.1%	-5	3%	-1%

Four of the compounds above, with each value named:
> COc1c2c(nc3occc13)C(CC=C(C)C)(OC)C(OC(C)=O)CC2 (configuration not stated)
  Rango complex inh = 1.0%
  GLA inh pH 4.5 = -3
  Rango dissoc inh = -1%
  miR-21 reporter = -4%
> CCNS(=O)(=O)c1ccc(CCC(N)=O)cc1
  Rango complex inh = -0.5%
  GLA inh pH 4.5 = 5
  Rango dissoc inh = 8%
  miR-21 reporter = -1%
> Cc1ccc(NC(=O)CCS(=O)(=O)c2ccc3c(c2)NC(=O)C(C)S3)cc1Cl (configuration not stated)
  Rango complex inh = -0.3%
  GLA inh pH 4.5 = nt
  Rango dissoc inh = 22%
  miR-21 reporter = 19%
> COc1cccc(CN(C)CC(=O)NNC(=O)c2ccc(Cl)cc2)c1
  Rango complex inh = 0.0%
  GLA inh pH 4.5 = -17
  Rango dissoc inh = 22%
  miR-21 reporter = -8%

New compounds follow
SMILES	Rango complex inh	GLA inh pH 4.5	Rango dissoc inh	miR-21 reporter
OC1(c2ccc(Br)cc2)CCNCC1	-3.3%	4	0%	-4%
CC(C)(C)C(=O)Nc1ccc(S(=O)(=O)Nc2nccs2)cc1	-1.4%	nt	9%	-12%
COc1ccc(N2CCN(C(=O)CN(c3ccc(OC)cc3)S(=O)(=O)c3ccccc3)CC2)cc1	0.1%	nt	16%	-2%
Cc1cccc(/N=C/c2c(O)cc(C)oc2=O)n1	?	-3	?	-5%
COc1ccc(S(=O)(=O)N2CCCCC2)cc1NC(=O)CSc1nnc(C2CC2)n1C	2.8%	nt	?	nt
CCCNC(=O)C1CCC(CNS(=O)(=O)c2ccc3c(c2)N(C(C)=O)CCO3)CC1 (configuration not stated)	1.9%	nt	-12%	3%
CC(=O)NS(=O)(=O)c1ccc(NC(=O)c2oc3c(Cl)cccc3c2C)cc1	2.4%	0	-12%	-44%
CCC(=O)NNC(=S)NC(=O)c1ccc(C)cc1	-0.8%	-5	12%	-25%
COC(=O)c1ccc(C(=S)N2CCOCC2)cc1	1.1%	2	?	-8%
Nc1nc(COC(=O)CCC(=O)c2ccccc2)nc(Nc2ccccc2)n1	-6.7%	nt	?	nt
O=C(CSc1ncnc2c1cnn2CCc1ccccc1)Nc1ccc(F)cc1	nt	0	nt	-13%
CC1Sc2ccc(C(=O)Nc3ccc(S(=O)(=O)N(C)C)cc3)cc2NC1=O (configuration not stated)	0.3%	nt	13%	nt
C/C(=N\Nc1ccc(S(=O)(=O)N2CCOCC2)cc1[N+](=O)[O-])C(C)C	-2.7%	-11	1%	-1%
Cc1ccc(NC(=O)CCc2ccc(S(=O)(=O)N3CCOCC3)cc2)c(C)c1	0.1%	4	-11%	1%
Cc1cc(Oc2ccc3ccccc3c2)nc(SCC(=O)c2ccccc2)n1	-1.3%	-5	11%	10%
COc1ccc(OCc2cc(C(=O)NCC3CCOCC3)no2)c(Cl)c1	-6.2%	nt	3%	-55%
CN(N=O)c1ccc(C=C2C=Cc3ccccc32)cc1	6.6%	nt	5%	nt
C=CC[C@@H](CC(=O)N[C@@H](CO)Cc1ccccc1)C(=O)N[C@H](COC(=O)[C@@H](CC=C)Cc1ccc(F)cc1)C(C)(C)C	-3.8%	nt	-4%	nt
COc1ccccc1CNC(=O)c1nn(-c2ccc(C)cc2)c(=O)c2c1c1ccccc1n2C	2.1%	3	0%	-6%&-1%
CCC(=O)c1ccc(OCC(O)CN2CCN(c3cccc(C(F)(F)F)c3)CC2)cc1 (configuration not stated)	-4.9%	-23	0%	25%
CCC(NC(=O)NCCCn1ccnc1)(C(F)(F)F)C(F)(F)F	7.2%	-3	18%	-14%
COc1ccccc1N1CCN(C(=O)CSc2nc(N)cc(=O)[nH]2)CC1	1.1%	3	-1%	0%
CCOC(=O)[C@H]1[C@H]2COc3ccc(Cl)cc3[C@@H]2N2C(=O)c3cc(F)ccc3NC(=O)[C@@]12C	?	nt	0%	nt
O=C(O)Cn1c(=O)c2c3c(sc2n(Cc2ccccc2F)c1=O)CCCC3	3.2%	nt	5%	-4%
O=C(c1ccccc1F)N1CCN(C2CCC(c3ccccc3)CC2)CC1 (configuration not stated)	-0.5%	-12	18%	10%
O=C(NCc1ccco1)c1ccc(Cl)c(S(=O)(=O)N2CCCC2)c1	?	nt	-7%	nt
O=c1oc(CCCO)cc2ccc(C#CC3(O)CCCCC3)cc12	-3.0%	nt	29%	nt
COc1ccc(-n2c(=S)[nH]c3sc4c(c3c2=O)CCc2ccccc2-4)cc1	nt	-5	nt	-1%
COc1cccc(C(=O)Nc2nnc(-c3cccs3)s2)c1	-4.2%	0	3%	-55%
CC(NC(=O)c1cc2ccccc2oc1=O)c1ccccc1 (configuration not stated)	0.1%	nt	19%	-48%

As entered above.
Value for `CCC(=O)c1ccc(OCC(O)CN2CCN(c3cccc(C(F)(F)F)c3)CC2)cc1` (configuration not stated) in Rango dissoc inh: 0%
Value for `O=C(NC1CC1)c1cc2cc(Br)ccc2s1` in Rango dissoc inh: 0%
Value for `CC1Cc2nc(SCC(=O)Nc3nccs3)n(C)c(=O)c2S1` (configuration not stated) in Rango dissoc inh: -10%

The list goes on:
SMILES	Rango complex inh	GLA inh pH 4.5	Rango dissoc inh	miR-21 reporter
CCOc1c2ccc(C(=O)NCc3ccc(OC(F)(F)F)cc3)cc2nn1CC	-2.4%	-3	6%	-6%
CCC1=C2CC[C@H]3C(=O)N(c4ccccc4)C(=O)[C@H]3[C@H]2[C@@]2(C)C(=NCC(=O)OC)OC(=O)N2C1=O	0.2%	-4&-3	7%	2%
CNc1c(N=Cc2cccnc2)c(=O)n(C)c(=O)n1C	?	1	-15%	-1%
CCc1ccc(NC(=O)C(C)OC(=O)CN2C(=O)NC3(CCCC3)C2=O)cc1 (configuration not stated)	0.0%	nt	-1%	nt
Nc1c(C(=O)NC2CC2)sc2nc3c(c(-c4ccco4)c12)CC/C3=C/c1ccco1	?	-11	?	3%
CC(NC(=S)N1CCOCC1)c1ccccc1 (configuration not stated)	4.8%	6	17%	-4%
CCc1ccc(NC(=O)CSc2nc3ccsc3c(=O)n2CCCCCC(=O)O)cc1	-6.3%	8	20%	2%
CC(=O)N1CCCc2ccc(NS(=O)(=O)c3ccc(C)c(C)c3)cc21	-0.4%	nt	1%	20%&17%
COc1ccc(C(=O)N/N=C(\C)CC(=O)Nc2ccc3ccccc3c2)c(OC)c1	-2.0%	nt	10%	-18%
COc1cc(CNCCN(C)C)ccc1OCc1c(F)cccc1Cl	-2.7%	7	27%	-16%
CC(C)(C)c1cc(C(F)(F)F)c(C#N)c(=O)[nH]1	?	?	-12%	1%
CCn1cc(S(=O)(=O)N2CCN(Cc3cccc(Cl)c3)CC2)cn1	0.3%	-2	20%	0%
COc1ccc(CNC(=O)N2CCN(c3ccc(F)cc3)CC2)cc1Cl	10%	5	-4%	-1%
O=C(Nc1cc(S(=O)(=O)Nc2ccccc2F)ccc1Cl)c1ccc(F)cc1F	0.6%	nt	7%	nt
Cn1cc(S(=O)(=O)N2CCOCC2)cc1C(=O)NCc1ccccc1Cl	-0.2%	nt	-16%	-4%

Compound profiles, as listed above:
CC1Sc2ccc(C(=O)Nc3ccc(S(=O)(=O)N(C)C)cc3)cc2NC1=O (configuration not stated) is listed as Rango complex inh = 0.3%; GLA inh pH 4.5 = nt; Rango dissoc inh = 13%; miR-21 reporter = nt
CC(NC(=O)c1cc2ccccc2oc1=O)c1ccccc1 (configuration not stated) is listed as Rango complex inh = 0.1%; GLA inh pH 4.5 = nt; Rango dissoc inh = 19%; miR-21 reporter = -48%

Next part.
SMILES	Rango complex inh	GLA inh pH 4.5	Rango dissoc inh	miR-21 reporter
CCOP(=O)(OCC)C(C)(C)NC(=O)Nc1ccc(Cl)c(Cl)c1	2.8%	-4	-3%	13%
Nn1cnnc1N/N=C/c1ccccc1C(F)(F)F	-0.3%	nt	-5%	14%
Cc1ccccc1Cn1cc(/C=N/n2cnnc2)c2ccccc21	6.5%	3	1%	-13%
C=CCNC(=O)NC(=O)COC(=O)/C(C#N)=C/c1ccc(OC)cc1	?	-5	-21%	0%
O=S(=O)(c1ccc(F)c(Cl)c1)N1CCN(C/C=C/c2ccccc2)CC1	-1.8%	nt	0%	nt
COc1cc(C(=O)Nc2nccs2)cc(OC)c1OC	?	-6	-1%	22%
Cc1cnc2c(c1)C(=O)c1ccccc1-2	2.3%	nt	9%	-17%
CCOc1cc(-c2c(C#N)c(N)nc3c2CCCC3)ccc1O	?	-8	-25%	-3%
CCOC(=O)c1sc(NCC2CCCO2)nc1C (configuration not stated)	-1.7%	-3	1%	-29%
CC(C)C[C@H](NC(=O)c1nc[nH]c1C(=O)N1CCC(C)CC1)C(=O)OC(C)(C)C	3.5%	-1	8%	6%
COc1ccc(N2CCN(S(=O)(=O)c3c(C(=O)N4CCOCC4)c(C)n(C)c3C)CC2)cc1	-0.8%	nt	-8%	-3%
CCc1ccc([C@H]2C(C(=O)O)=C[C@@H](CC3CCCC3)N2S(=O)(=O)c2ccc(C)cc2)cc1	2.7%	nt	-6%	nt
